Screening data (PubChem)
HCMV NEC inh: disrupts HCMV UL50-UL53 complex binding. HTRF UL50-UL53 interaction, normalized percent inhibition. inhibition, % (no concentration beside the values). hit rate 0.15% among 190,000;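 active = both replicates at 50% or more, plus weaker picks with an unusually low signal ratio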;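 also: stock transfer was 100 nL into about 20 µL; 0% = negative control wells and 100% = wells with untagged competitor protein; inactives centre near -12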
Sa growth 42C: blocks Staphylococcus aureus growth; S. aureus RN4220 growth, OD600, 20 h, 42 °C; stronger effect = lower value; relative growth, % (no concentration beside the values); hit rate 0.53% among 170,000;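 active = growth at 42 °C up to 50% and 20 or more points under that at 30 °C, or under 10% at both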;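 also: 300 nL library stock went into each well; scaled to the means of positive and negative controls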
GIV-Gai inh: inhibitors of GIV GBA-motif binding to rat Galpha-i3; P08753; Galpha-i3/FITC-GIV peptide fluorescence polarization, 90 min; stronger effect = lower value; scaled: aluminum fluoride 0%, vehicle 100%; percent of control (FP), % (concentration not given with the values); hit rate 0.42% among 210,000; AID 1224905;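 active = replicate mean at 85% of control or lower, very high polarization wells dropped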;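 also: wells of about 15 µL received 100 nL stock; the first replicate is given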
Target sequence (P08753 whole entry, looked up): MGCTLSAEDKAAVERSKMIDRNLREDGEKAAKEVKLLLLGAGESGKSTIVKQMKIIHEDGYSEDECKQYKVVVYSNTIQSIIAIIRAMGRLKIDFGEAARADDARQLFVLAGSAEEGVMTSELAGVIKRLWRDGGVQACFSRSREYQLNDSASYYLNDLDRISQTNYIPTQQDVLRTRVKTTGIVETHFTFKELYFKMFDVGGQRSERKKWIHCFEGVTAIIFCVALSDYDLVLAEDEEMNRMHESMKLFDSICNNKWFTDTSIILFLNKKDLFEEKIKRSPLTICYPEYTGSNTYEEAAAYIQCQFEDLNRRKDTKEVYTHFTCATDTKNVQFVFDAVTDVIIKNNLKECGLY
Sa growth 42C second temp: recorded beside Sa growth 42C, whose call it bears; relative growth, %; measured here: growth at 30 °C;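 optical density after 20 h as mean of two plates; 100% = untreated growth and lower means inhibition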
* hit, by the source's call; nt = no result given; & = joins results of further samples.

SMILES	HCMV NEC inh	Sa growth 42C	Sa growth 42C second temp	GIV-Gai inh
Cn1nc(C(F)(F)F)c(/C=N/O)c1Sc1ccccc1	-6	nt	nt	110
CCOc1ccc(NC(=O)Cn2cc(C(=O)c3ccc(CC)cc3)c(=O)c3cc4c(cc32)OCO4)cc1	-33	104	86	102
COc1cc(NC(=O)CCS(=O)(=O)c2ccc3c(c2)NC(=O)C(C)S3)cc(OC)c1 (stereo unspecified)	-8	109	87	101
O=C(CSc1nnc2sc3ccccc3n12)Nc1ccccc1F	-6	nt	nt	104
CC(C(=O)NC(=O)NC1CCCCC1)N1CCN(S(=O)(=O)c2ccc3c(c2)OCCCO3)CC1 (stereo unspecified)	3	106	95	nt
COc1ccc(C)c(N2C(=O)CC(N3CCN(c4ccc(F)cc4)CC3)C2=O)c1 (stereo unspecified)	8	108	109	99
C=C(C)C1CC=C(CN2CCN(c3ccccc3)CC2)CC1 (stereo unspecified)	-15	113	88	105
COC(=O)CSc1nc2[nH]c(=O)cc(O)c2s1	-32	90	84	109
O=C(O)C1C2CCC(C2)C1C(=O)NCc1ccco1 (stereo unspecified)	nt	100	79	103
CCCc1cc(=O)n2[nH]c(NC(=O)CCc3ccccc3)nc2n1	nt	95	90	100
Cn1cc(-c2nc3ccccc3[nH]2)c(-c2ccccc2)n1	-5	86	75	nt
S=C(Nc1ccccc1)Nc1nccs1	-6	nt	nt	97
COc1ccccc1C(O)(C(=O)NNc1cccc(Br)n1)c1ccccc1OC	-14	112	103	96
CC1CCN(CCCNC(=O)c2cc3c(s2)-c2ccc(Cl)cc2SC3)CC1	-69	nt	nt	106
CCN1CCN(CCCNC(=O)c2cc3c(=O)n(CC)c4ccccc4c3s2)CC1	-78	120	91	105
CC(C)Cn1[nH]nnc1=S	-15	92	92	nt
Cc1cc(C(=O)N2CCCCC2)c2c(=O)n(CC(=O)NCCC(C)C)c(=O)n(C)c2n1	-14	nt	nt	103
COc1ccc(C(=O)Nc2cc(C)nn2-c2ncnc3c2cnn3-c2ccccc2)c(OC)c1	11	nt	nt	101
O=C(c1ccc(Cn2c(=O)c(=O)n(Cc3ccc(F)cc3)c3cccnc32)cc1)N1CCOCC1	1	nt	nt	104
O=[n+]1cc(-c2ccc(F)cc2)n([O-])c2c1CCCC2	-80	84	90	100

3 entries from above, sorted by the value under Sa growth 42C, ascending.
| Structure | Sa growth 42C | Sa growth 42C second temp | GIV-Gai inh |
| --- | --- | --- | --- |
| CC(C)Cn1[nH]nnc1=S | 92 | 92 | nt |
| CCCc1cc(=O)n2[nH]c(NC(=O)CCc3ccccc3)nc2n1 | 95 | 90 | 100 |
| CCOc1ccc(NC(=O)Cn2cc(C(=O)c3ccc(CC)cc3)c(=O)c3cc4c(cc32)OCO4)cc1 | 104 | 86 | 102 |

(more compounds)
SMILES	HCMV NEC inh	Sa growth 42C	Sa growth 42C second temp	GIV-Gai inh
CC(=O)n1cc(N2C(=O)C3C4C=CC(C4)C3C2=O)c(=O)[nH]c1=O (stereo unspecified)	-2	107	89	108
CCOC(=O)CSc1n[nH]c(N)n1	-17	94	83	101
O=C(Cn1c(=O)sc2ccccc21)OCc1ccccc1	3	91	85	104
OC(CN1CCC(Cc2ccc(F)cc2)CC1)c1ccc(Cl)cc1 (stereo unspecified)	1&-25	nt	nt	109
CCc1ccc(CNC(=O)CN2C(=O)c3cccnc3Oc3ccc(Cl)cc32)cc1	nt	132	78	104
CS(=O)c1scc(-c2cccc(C(F)(F)F)c2)c1C#N (stereo unspecified)	-20	83	81	105
OC(CNCC1COc2ccccc2O1)COc1ccccc1F (stereo unspecified)	-14	114	89	nt
CCOc1ccccc1NC(=O)c1c(NCc2ccc(C)o2)sc2c1CCC(C)C2 (stereo unspecified)	nt	104	100	105
COc1ccc(C2OC(=O)C(C)(C)C(=O)C2C)cc1OC (stereo unspecified)	-12	111	102	99
COc1ccccc1NC(=O)N1CC(=O)Nc2sc3c(c2C1c1ccccc1)CCCC3 (stereo unspecified)	-3	85	94	109
Cc1cc(C)cc(NC(=O)c2cc(-c3ccncc3)n[nH]2)c1	12	nt	nt	101
CC(Sc1oc(-c2ccco2)nc1S(=O)(=O)c1ccc(Br)cc1)c1ccccc1 (stereo unspecified)	-5	92	97	109
COC(=O)C1=C(C)NC(=O)CC1c1ccccc1 (stereo unspecified)	5	114	88	104
O=c1c(N2CCN(c3cccc(Cl)c3)CC2)csc2ccc(Cl)cc12	nt	108	96	107
CC(C)(C)NC(=O)c1cnc2sccn2c1=O	-9	nt	nt	108
O=C1CSC(c2ccccc2)N1c1cccnc1 (stereo unspecified)	-16	104	93	114
COc1ccc(CCNC(=O)C(F)(F)F)cc1	-4	110	100	98
Cc1ccsc1-c1nc(CSCC(=O)NCc2ccc3c(c2)OCO3)c(C)o1	-4	104	83	97
COc1ccccc1C(CNC(=O)c1cccc(-n2cnnn2)c1)N1CCCC1 (stereo unspecified)	-7	109	93	nt
Cc1cccc(C(=O)N2CCC(N3CCN(Cc4ccc(F)cc4)C3=O)CC2)c1	-27	nt	nt	108
Cc1nc2ccn(Cc3ccco3)c(=O)c2cc1C(=O)NCc1ccco1	-10	110	88	96
CCN(CC)S(=O)(=O)c1ccc(Sc2nncs2)nc1	-10	90	96	nt
O=C(c1cccc(Oc2ccccc2)c1)N1CCN(C2CCS(=O)(=O)C2)CC1 (stereo unspecified)	16	113	98	nt
CC1(C)CC(NCC(=O)NC2CC(C)(C)NC(C)(C)C2)CC(C)(C)N1	7	96	106	106
O=C(COC(=O)CCC1CCCC1)Nc1ncc(C(F)(F)F)cc1Cl	-37	89	80	nt
c1ccc(-c2nc3sc(-c4ccccc4)nc3s2)cc1	-28	80	90	100
CCCNC(=O)Cn1nc(-c2ccc(C)c(C)c2)c2cnc3ccc(F)cc3c21	nt	95	95	98
COc1cc(NC(=O)CN2C(=O)COc3cc(S(=O)(=O)N4CCOCC4)ccc32)cc(OC)c1	nt	104	93	104
C=CCn1cc(Cc2cn(CC=C)nc2C)c(C)n1	-4	87	93	nt
COc1ccccc1N1CCN(C(=O)c2cnn(-c3ccc(Cl)cc3)c2C)CC1	14	103	99	110
CCOC(=O)c1cc(S(=O)(=O)Nc2cc(C)c(Cl)cc2OC)[nH]n1	nt	101	90	109
O=C1/C(=C/c2cc(Br)cs2)CCC1C1CCCC1 (stereo unspecified)	nt	99	91	105
Cn1c(=O)n(C)c2cc(/C=C3/SC(=O)N(Cc4ccc(Cl)cc4)C3=O)ccc21	-16	92	83	108
COc1ccc(C2Nc3ccccc3C(=O)N2Cc2ccco2)cc1COc1cccc(C)c1C (stereo unspecified)	-23	nt	nt	100
O=C(Nc1nnc(S(=O)(=O)N2CCCC2)s1)c1ccccc1Br	8	98	89	103
O=C(CC(c1ccc(F)cc1)N1Cc2ccccc2C1=O)NCc1ccccn1 (stereo unspecified)	1	nt	nt	101
CN1CCN(C(=O)c2cc(-c3ccc(F)cc3)on2)CC1	3	107	97	105
COc1cc(C(=O)COC(=O)CSc2nc3ccccc3o2)ccc1OC(F)F	-9	100	95	nt
CC(C)N(C(=S)Nc1cccc(C(F)(F)F)c1)C(C)c1ccccn1 (stereo unspecified)	nt	48	28	103
CCC(=O)N1C(C(=O)NCc2ccccc2F)CSC12CCN(C)CC2 (stereo unspecified)	-38	106	93	104
O=C(Nc1ccc2c(c1)C(=O)OC2)c1cccs1	-9	107	87	99
Cc1ccc(-n2c(-c3cccc(C)c3)nc3c(cnn3-c3ccccc3)c2=O)cc1	7	93	83	109
CC(C)NC(=S)N/N=C/c1cccc(O)c1	-37	98	85	nt
CN(C)NC(=S)NC(=O)C12CC3CC(CC(C3)C1)C2	7	114	96	nt
CCOC(=O)N1CCc2c(sc3c2c(=O)n(-c2ccc(F)cc2)c(=O)n3CC(=O)N(CC)CC)C1	1	103	86	101
CC(C)NS(=O)(=O)Cc1ccc(C#N)cc1	-4	84	85	nt
Cc1csc(NC(=O)CSc2ccccc2)n1	-32	85	90	nt
Nc1cc(C(F)(F)F)ccc1Sc1nc2ccccc2s1	-17	56	66	nt
c1coc(CSCc2ccc3nonc3c2)c1	-49	98	94	101
O=C(c1ccco1)N1CCN(c2nc(-c3cccs3)ns2)CC1	2	100	73	95
O=C(CCCc1nnc(C(=O)Nc2ccccc2)s1)NCCCN1CCC(N2CCCCC2)CC1	-26	nt	nt	103
CN(C)c1ccc(CNC(=O)CN(C)S(=O)(=O)c2ccc3c(c2)c(=O)n(C)c(=O)n3C)cc1	-14	96	88	99
CCN1CCC(N(Cc2ccc3c(c2)OCO3)C(=O)Nc2cc(Cl)ccc2C(=O)OC)CC1	nt	115	70	107
CC(=O)N/C(N)=N/c1nc2ccccc2o1	nt	106	80	103
CC(C)(C)C(=O)Nc1ccc2nc(SCC(=O)N3CCCC3)sc2c1	-1&-15	103	87	107&97
CC(C)OC(=O)Cn1cc(/C=C2/SC(=O)NC2=O)c2ccccc21	-12	83	93	104
O=C(O)c1cc(N2CCN(c3ccccn3)CC2)nc2ccc(NS(=O)(=O)c3ccc(F)cc3)cc12	-21	nt	nt	101
CCCn1c(NCc2ccc(C)o2)nc2ccccc21	-2	120	90	nt
O=C(/C=C1\OC(=O)c2ccccc21)Oc1cc(Cl)cc(Cl)c1	-2	96	96	100
COc1ccc(-c2nonc2NC(=O)COc2ccc(C(C)C)cc2)cc1C	-7	nt	nt	97

Nothing new here: 2 of the compounds above.
SMILES	HCMV NEC inh	Sa growth 42C	Sa growth 42C second temp	GIV-Gai inh
O=C(/C=C1\OC(=O)c2ccccc21)Oc1cc(Cl)cc(Cl)c1	-2	96	96	100
COc1ccc(-c2nonc2NC(=O)COc2ccc(C(C)C)cc2)cc1C	-7	nt	nt	97

Full records, quoted from the list. Screens in order: HCMV NEC inh	Sa growth 42C	Sa growth 42C second temp	GIV-Gai inh
`CCN1CCC(N(Cc2ccc3c(c2)OCO3)C(=O)Nc2cc(Cl)ccc2C(=O)OC)CC1` is entered as nt	115	70	107
`COc1ccc(CCNC(=O)C(F)(F)F)cc1` is entered as -4	110	100	98
`CC1CCN(CCCNC(=O)c2cc3c(s2)-c2ccc(Cl)cc2SC3)CC1` is entered as -69	nt	nt	106
`CC(C(=O)NC(=O)NC1CCCCC1)N1CCN(S(=O)(=O)c2ccc3c(c2)OCCCO3)CC1` (stereo unspecified) is entered as 3	106	95	nt

Next structures
SMILES	HCMV NEC inh	Sa growth 42C	Sa growth 42C second temp	GIV-Gai inh
Cc1ccccc1OC(C)C(=O)O/N=C(\N)c1cccnc1 (stereo unspecified)	0	110	97	104
O=C(Cn1c(NCc2ccccc2)nc2ccccc21)N1CCCC1	-35	82	82	nt
CSc1cccc(N2C(=O)N(CC(=O)NCc3ccccc3Cl)c3ccccc3S2(=O)=O)c1	nt	105	103	107
COc1ccc(CC(=O)Nc2cc3c(cc2SC(C)C)n(C)c(=O)n3C)cc1OC	-44	nt	nt	103
COC(=O)CCCC[C@H]1SC[C@H]2NC(=O)N[C@]21O	-28	95	89	104
Cc1ccc(CNC(=O)CCc2c(C)nc3c(-c4ccc(F)cc4)c(C)nn3c2C)cc1	-26	104	96	103
O=C(NCCN1CCCC1)C1=Cc2sc3c(c2CS1)CCCC3	nt	127	82	126
O=C(CP(=O)(CO)CO)c1ccc(Cl)cc1	-24	104	91	nt
COc1ccc(NC(=O)C(c2ccc(C)cc2)N(Cc2ccco2)C(=O)c2cnccn2)cc1 (stereo unspecified)	-22	91	87	105
CC1=C(C(=O)Nc2ccc(C)cc2C)C(c2ccccc2[N+](=O)[O-])n2ncc(C(=O)Nc3ccccc3)c2N1 (stereo unspecified)	nt	82	80	109
Cc1ncc(CO)c(/C=N/NC(=O)c2ccc(O)cc2)c1O	-36	91	100	111
O=C(O)CCC(=O)N1N=C(c2c(-c3ccccc3)c3cc(Br)ccc3[nH]c2=O)CC1c1ccco1 (stereo unspecified)	-17	nt	nt	104
S=C(NCc1ccco1)N/N=C1\CSCc2ccccc21	-16	96	93	105
Cc1cccc(-c2nccc(N3CCC(C(=O)NCc4ccc5c(c4)OCO5)CC3)n2)c1	-14	nt	nt	106
Cc1ccc2[nH]c(=O)c(CN(Cc3cccnc3)S(=O)(=O)c3ccccc3)cc2c1	-19	121	93	103
CCc1ccc(-c2nn(CC(=O)NC3CCCCC3)c3c2cnc2ccc(F)cc23)cc1	nt	78	98	98
CC1CCCC(C)N1C(=O)COC(=O)c1ccc(NS(=O)(=O)c2ccc3c(c2)OCCO3)cc1 (stereo unspecified)	-30	98	96	nt
COC(=O)c1ccc(N2C(=O)c3ccc(N)cc3C2=O)cc1	-49	91	88	102
O=C1N(Cc2cc(F)cc(F)c2)c2ccccc2S(=O)(=O)N1Cc1ccc(F)cc1	-3	nt	nt	106
CCN(CC)C(=O)Oc1ccnc2cc(Cl)ccc12	nt	105	83	106
NC(=O)c1ccc(-c2ccc(Cl)cc2)s1	-33	97	68	102
CCC(C)NC(=O)C1CCN(S(=O)(=O)c2cc(-c3noc(C(C)C)n3)sc2C)CC1 (stereo unspecified)	-8	nt	nt	104
Cc1ccc(-c2nc3ccc(Cl)cn3c2Nc2ccccc2C)s1	-7	98	87	103
O=S(=O)(c1ccc(NCCOc2ccccc2)nc1)N1CCCC1	-5	87	94	nt
Cc1cccc(N2CCN(Cc3nnc(-c4ccc5c(c4)OCO5)o3)CC2)c1C	-2	122	100	108
COc1cc(C(CC(=O)N2CCCCC2)N2Cc3ccccc3C2=O)cc(OC)c1OC (stereo unspecified)	-27	89	79	103
